Assay outcomes (PubChem)
Vif A3G = inhibitors of Vif binding to APOBEC3G peptide, primary screen, biochemical, TR-FRET, GST-Vif 1-94, biotin-A3G peptide, dose response retest (AID 1117319) | 0.57% of 260,000 active | inhibition, %, or IC50 in µM where a hit was titrated | TR-FRET GST-Vif / biotin-A3G peptide binding; higher % means a stronger effect; test concentration not given here; strong numbers were not always called active | Virion infectivity factor (Human immunodeficiency virus type 1 group M subtype B (isolate …;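 active means above the screen mean plus three standard deviations and confirmed in dose response; inconclusive means results disagree or hit not tested in dose response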;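 further: Vif residues 1-94 fused to GST binding biotinylated APOBEC3G peptide 110-148; 0% = full assay without inhibitor and 100% = GST in place of GST-Vif; retest series ran down from 100 µM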
Beta cell apopt = inhibitors of cytokine-induced beta cell apoptosis, primary screen, luminescence. INS-1E cytokine-induced death, ATP luminescence, 48 h; percent of positive-control rescue, neutral wells zero. protection from apoptosis, % (no concentration beside the values). 0.8% of 300,000 active;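 active means all replicates at 75% or more, or half of them and the mean; inconclusive means half reach 75% but not the mean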;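 further: 0% = cytokine-treated negative control wells and 100% = positive control rescue; higher means more ATP so stronger rescue from cytokine killing; wells of about 40 µL received 100 nL stock; the first replicate is given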
LANA-H2A inh = blockers of LANA interaction with H2A/H2B – biochemical, FP readout, HTS, primary screen. 0.6% of 320,000 active. inhibition, % (no concentration beside the values). cell-free LANA-H2A/H2B peptide, fluorescence polarization; in the data active means inhibition mostly above about 10%, no sharp cut-off; inactive means mostly below about 6.7%;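 further: stock transfer was 7.5 nL into about 10 µL; 0% = median of vehicle wells and 100% = median of positive control wells; one replicate is shown; the record names a cut of 25% in any replicate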
Calb FLC = C. albicans growth inhibition with fluconazole, primary screen, CaCi-2 strain, Alamar Blue fluorescence; C. albicans CaCi-2 (fluconazole-resistant clinical isolate) + fluconazole, 48 h; growth inhibition, % (test concentration not listed); 0.57% of 300,000 active;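 active means most replicates above 75%; inconclusive means exactly half above 75%; inactive means most below 75%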;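 further: all wells also contain fluconazole at 8 µg/ml as a sub-toxic cotreatment; 0% = median of DMSO wells and 100% = median of geldanamycin control wells; wells of about 8 µL received 7.5 nL stock; the first replicate is given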
T cruzi repl = inhibitors of intracellular T. cruzi growth, primary screen, luminescence, NIH3T3 host cells; T. cruzi beta-gal in NIH3T3, 90 h; inhibition, % (test concentration not listed); 1.4% of 300,000 active; AID 1885, 2009;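 active means mean inhibition across valid replicates above about 55%, limit read from the data; inconclusive means mean below that limit but half or more replicates reach it; inactive means mean below it, under half of replicates reach it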;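 further: signal also drops with host cell toxicity which is not excluded here; 0% = plate median of DMSO wells and 100% = zero luminescence signal; higher percent means less beta-gal luminescence so fewer parasites; stock transfer was 50 nL into about 50 µL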
RanGTP-Imp inh = inhibitors of RanGTP-importin-beta interaction, primary screen, biochemical, FRET, CFP-Ran, YFP-importin-beta, homogeneous; cell-free CFP-Ran/YFP-importin-beta FRET ratio; AID 2216, 2009; 1.1% of 300,000 active; inhibition, % (test concentration not listed);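 active means most replicates above 15%; inconclusive means exactly half above 15%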;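 further: 0% = DMSO wells and 100% = Ran loaded with GDP instead of GTP; wells of about 40 µL received 100 nL stock; the first replicate is given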
A1 inh = caspase 3/7 activation in MEF A1-2A-BIM cells, primary screen, A1 inhibitor project, cell-based, luminescence, HTS. 0.066% of 330,000 active. Caspase-Glo 3/7 luminescence, 3 h; percent of clofoctol response, vehicle zero. caspase activation, % (no concentration beside the values);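 active means over half of replicate activation scores above 10%, or exactly half above 10 with the replicate mean above 10; inconclusive means replicate mean below 10 yet half the replicates above 10; inactive means over half of replicates below 10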;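 further: wells of about 30 µL received 50 nL stock; many hits fall short of the cut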
MLL AF4-AF9 inh = inhibitors of AF4 peptide binding to AF9, primary screen, biochemical, AlphaScreen, biotin-AF4 peptide, FLAG-AF9, single point; Protein AF-9 (Homo sapiens), P42568; inhibition, % at 10 µM; 0.47% of 350,000 active; AID 651704, 2012;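 active means every replicate reaching a set inhibition limit, whatever the replicate mean, cut at about 25% in these data; inconclusive means mean inhibition reaches that limit but some replicates miss it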;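 further: 0% = plate neutral control median and 100% = total signal loss; the record names both 10 and 1 µM as test concentration; the first replicate is given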
Target sequence (P42568 whole entry, looked up): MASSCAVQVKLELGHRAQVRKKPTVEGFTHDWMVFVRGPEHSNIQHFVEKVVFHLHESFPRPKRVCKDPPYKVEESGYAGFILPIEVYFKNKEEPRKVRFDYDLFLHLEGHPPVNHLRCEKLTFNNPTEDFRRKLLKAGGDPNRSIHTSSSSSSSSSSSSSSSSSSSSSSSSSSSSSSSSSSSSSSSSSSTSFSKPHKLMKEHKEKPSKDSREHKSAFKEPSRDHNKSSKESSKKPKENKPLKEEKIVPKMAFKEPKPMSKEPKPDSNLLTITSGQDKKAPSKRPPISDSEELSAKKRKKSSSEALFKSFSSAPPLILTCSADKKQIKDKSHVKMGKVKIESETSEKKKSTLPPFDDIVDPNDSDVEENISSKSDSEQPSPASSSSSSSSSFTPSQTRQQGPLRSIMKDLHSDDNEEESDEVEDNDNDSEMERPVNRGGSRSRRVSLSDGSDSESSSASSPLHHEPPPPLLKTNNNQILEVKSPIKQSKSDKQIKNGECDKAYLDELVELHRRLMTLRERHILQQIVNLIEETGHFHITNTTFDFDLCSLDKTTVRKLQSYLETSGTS
Numbers without * were called inactive.

For CC(C)OC(=O)CC1C(=O)NCCN1C(=O)COc1ccc(C(C)(C)C)cc1 (stereo not given) the results were Beta cell apopt -1, LANA-H2A inh 1.2, Calb FLC -1, T cruzi repl 6, RanGTP-Imp inh -2.0, A1 inh 0.3 and MLL AF4-AF9 inh -9.1.
Screening Cc1c(C(=O)N2CCCC2)c(S(=O)(=O)Nc2cccc(Br)c2)c(C)n1C returned Beta cell apopt -7, LANA-H2A inh -2.4, Calb FLC 27, T cruzi repl 7, RanGTP-Imp inh 3.7, A1 inh -0.6 and MLL AF4-AF9 inh 0.7.
`CCOC(=O)C(C)Oc1ccc(NC(=O)C(Cl)Cl)cc1` (stereo not given) gave Vif A3G 2%, Beta cell apopt 2, LANA-H2A inh -3.4, Calb FLC -3, T cruzi repl -6, RanGTP-Imp inh 0.4, A1 inh 0.6 and MLL AF4-AF9 inh 0.8.
Screening COc1ccc(OC)c(/C=C/C(=O)NC2=NCCS2)c1 returned Beta cell apopt -2, LANA-H2A inh 5.8, Calb FLC -12, T cruzi repl 4, RanGTP-Imp inh 0.2, A1 inh -0.5 and MLL AF4-AF9 inh 0.7.
Screening O=C(O)CCc1nnc(SCC(=O)Nc2ccc(Cl)c(C(F)(F)F)c2)[nH]c1=O returned Vif A3G 0%, Beta cell apopt 3, LANA-H2A inh -0.5, Calb FLC -5, T cruzi repl -10, RanGTP-Imp inh 1.2, A1 inh -0.2 and MLL AF4-AF9 inh -1.7.
Screening CCCCC1CCC(C(=O)N(CCOC)c2c(N)n(CCCC)c(=O)[nH]c2=O)CC1 (stereo not given) returned Vif A3G -6%, LANA-H2A inh -0.1, Calb FLC 10, T cruzi repl 10, RanGTP-Imp inh 0.7, A1 inh 0.2 and MLL AF4-AF9 inh -14.
COc1ccc(NC(=O)COC(=O)/C=C/c2ccccc2[N+](=O)[O-])cc1OC was read as Beta cell apopt -2, LANA-H2A inh 1.0, Calb FLC -4, T cruzi repl -13, RanGTP-Imp inh 0.2, A1 inh -0.1 and MLL AF4-AF9 inh 1.7.
`CN(c1cccc(NS(=O)(=O)c2cccs2)c1)S(C)(=O)=O` gave Vif A3G -2%, Beta cell apopt -1, LANA-H2A inh -1.4, Calb FLC -4, T cruzi repl -2, RanGTP-Imp inh 1.2 and A1 inh -0.1.
Screening CC(C)NC(=O)C1CCN(Cc2cnn(-c3ccccc3)c2-n2cccc2)CC1 returned Vif A3G 3%, Beta cell apopt -4, LANA-H2A inh -4.3, T cruzi repl -11, RanGTP-Imp inh -4.9 and A1 inh 0.8.
Screening NC(=O)CSc1ncnc2c1cnn2Cc1ccccc1 returned Vif A3G 31%, Beta cell apopt -8, LANA-H2A inh 0.5, Calb FLC -12, T cruzi repl -29, RanGTP-Imp inh 6.1 and A1 inh -0.8.
Screening COC(=O)c1cc(=O)nc2sc(-c3ccc(F)cc3)nn12 returned Vif A3G 67%, Beta cell apopt -2, LANA-H2A inh 0.9, Calb FLC 46, T cruzi repl -14, RanGTP-Imp inh 0.2 and A1 inh -0.1.
Screening COc1ccccc1OCC(=O)N/N=C1\CCCCc2ccccc21 returned Vif A3G -12%, Beta cell apopt -5, LANA-H2A inh 1.0, Calb FLC -4, T cruzi repl -3, RanGTP-Imp inh 0.4, A1 inh 1.1 and MLL AF4-AF9 inh -4.4.
CN(C(=O)c1ccc(COc2ccccc2Cl)o1)c1ccccc1 was read as Vif A3G 0%, Beta cell apopt 3, LANA-H2A inh -0.9, Calb FLC 5, T cruzi repl 15, RanGTP-Imp inh 1.1, A1 inh -1.2 and MLL AF4-AF9 inh 0.3.
`O=C(CN1CCCCCC1)Nc1ccc(Cl)cc1F` gave Beta cell apopt 6, LANA-H2A inh 0.0, Calb FLC 1, T cruzi repl 9, RanGTP-Imp inh 6.2, A1 inh 0.2 and MLL AF4-AF9 inh 1.3.
COc1ccccc1/C=C/C(=O)OCC(=O)N1c2ccccc2CC1C (stereo not given) was read as Vif A3G 13%, Beta cell apopt -5, LANA-H2A inh -1.3, A1 inh 0.1 and MLL AF4-AF9 inh 2.2.
Screening CCC(C)(C)NC(=O)C(OC(=O)c1cc2sccc2n1C)c1ccc(OC)cc1 (stereo not given) returned Vif A3G 10%, Beta cell apopt -1, LANA-H2A inh -7.6, Calb FLC -22, T cruzi repl 12, RanGTP-Imp inh inconclusive and A1 inh 0.1.
CCOC(=O)C1CCCN(C2=NC(=O)/C(=C/c3ccc(OC)c(OC)c3)S2)C1 (stereo not given) was read as Vif A3G 1%, Beta cell apopt 0, LANA-H2A inh 0.1, Calb FLC -10, T cruzi repl 7, RanGTP-Imp inh -2.0, A1 inh -0.9 and MLL AF4-AF9 inh -0.5.
Fc1ccc2nc(C3CCN(Cc4nc(CC5CC5)no4)CC3)[nH]c2c1 was read as Vif A3G 3%, LANA-H2A inh 0.3, Calb FLC -2, T cruzi repl 10, RanGTP-Imp inh 2.8, A1 inh -0.1 and MLL AF4-AF9 inh -0.2.
For CCC(C)NC(=O)CN1C(=O)c2cccc3cccc1c23 (stereo not given) the results were Beta cell apopt -4, LANA-H2A inh 0.1, Calb FLC 0, T cruzi repl -2, RanGTP-Imp inh 0.4, A1 inh 0.1 and MLL AF4-AF9 inh -1.8.
`COc1ccc(-c2noc(-c3ccccc3C(=O)NCc3ccco3)n2)cc1` gave Vif A3G -1%, Beta cell apopt 2, LANA-H2A inh -7.2, Calb FLC 1, T cruzi repl 0, RanGTP-Imp inh 0.5 and A1 inh -1.7.
`ClC(Cl)(Cl)c1nc2ccccc2n2nncc12` gave Beta cell apopt 24, LANA-H2A inh -3.9, Calb FLC 3, T cruzi repl 7, RanGTP-Imp inh 0.8, A1 inh -0.5 and MLL AF4-AF9 inh -0.5.
For COc1ccc(N(CC(=O)Nc2ccc(F)cc2)S(=O)(=O)c2ccccc2[N+](=O)[O-])c(OC)c1 the results were Vif A3G 11%, Beta cell apopt 10, LANA-H2A inh 1.1, Calb FLC inconclusive, T cruzi repl 7, RanGTP-Imp inh 6.2, A1 inh -0.1 and MLL AF4-AF9 inh -4.6.
Screening Cc1ccc(NC(=O)CCC(=O)N/N=C/c2ccc(O)cc2)cc1 returned Beta cell apopt 4, LANA-H2A inh 3.0, Calb FLC -1, T cruzi repl -6, RanGTP-Imp inh 4.2, A1 inh -0.2 and MLL AF4-AF9 inh 0.2.
O=C(NN=C1CCCCCC1)c1cccnc1 was read as Vif A3G 75%, Beta cell apopt -5, LANA-H2A inh -2.0, Calb FLC -5, T cruzi repl -10, RanGTP-Imp inh -1.5, A1 inh 2.5 and MLL AF4-AF9 inh -2.9.
Screening CC(C)C(=O)Nc1nnc(-c2ccco2)s1 returned Vif A3G -4%, Beta cell apopt 3, LANA-H2A inh -14, Calb FLC -3, T cruzi repl -1, RanGTP-Imp inh 0.4, A1 inh 0.5 and MLL AF4-AF9 inh -2.8.
Screening CN(C)C(=O)c1cc(C(=O)c2ccc(F)cc2F)c[nH]1 returned Vif A3G -9%, Beta cell apopt -5, LANA-H2A inh -3.4, Calb FLC 0, T cruzi repl -18, RanGTP-Imp inh 1.6, A1 inh -0.4 and MLL AF4-AF9 inh -1.7.
`CCC1CCCCN1C(=O)c1cc(COc2ccc3ncccc3c2)on1` (stereo not given) gave Beta cell apopt 113*, LANA-H2A inh -0.9, Calb FLC 15, T cruzi repl 35, RanGTP-Imp inh -2.9, A1 inh -0.2 and MLL AF4-AF9 inh 1.3.
`C#Cc1ccc(CN2CCN(CCCc3ccccc3)C(CCO)C2)cc1` (stereo not given) gave Beta cell apopt 2, LANA-H2A inh -2.7, Calb FLC 0, T cruzi repl 21, RanGTP-Imp inh -2.3, A1 inh 0.1 and MLL AF4-AF9 inh 3.8.
Screening Nc1[nH]n2c(=O)cc(-c3ccccc3)nc2c1N=Nc1ccccc1 returned Vif A3G 5%, Beta cell apopt 45, LANA-H2A inh 1.5, Calb FLC 0, T cruzi repl 25, RanGTP-Imp inh -4.4 and A1 inh 0.2.
For C=CCn1c(SCC(=O)NCc2ccco2)nc2sc3c(c2c1=O)CCCC3 the results were Vif A3G -2%, Beta cell apopt 4, LANA-H2A inh 4.0, Calb FLC 16, T cruzi repl 32, RanGTP-Imp inh 0.1 and A1 inh -0.1.
`C=C(C)CSc1nnc2n(Cc3ccccc3)c(=O)c3c4c(sc3n12)CCC4` gave Vif A3G 18%, Calb FLC 3, T cruzi repl 22 and RanGTP-Imp inh -1.7.
For Cc1ccc(S(=O)(=O)CCC(=O)Nc2nnc(-c3cccs3)o2)cc1 the results were Vif A3G 7%, LANA-H2A inh -0.2, Calb FLC 32, T cruzi repl -18, RanGTP-Imp inh 1.1, A1 inh 0.1 and MLL AF4-AF9 inh -2.1.
Screening COc1ccc(N2C(=S)NC3c4cc(Cl)ccc4OC2(C)C3C(=O)N(C)C)cc1 (stereo not given) returned Beta cell apopt -7, LANA-H2A inh -2.4, Calb FLC 9, T cruzi repl -5, RanGTP-Imp inh 0.2, A1 inh -0.1 and MLL AF4-AF9 inh 5.2.
CC1(C)N=C(SCC(=O)Nc2ccc(Cl)cc2)C(c2ccccc2)=N1 was read as Vif A3G -3%, Beta cell apopt -32, LANA-H2A inh 0.8, Calb FLC 1, T cruzi repl -8, RanGTP-Imp inh 4.3 and A1 inh 0.9.
COc1ccc(OC)c(NC2=NC3(CCCC3)N=C(N)N2)c1 was read as Vif A3G 11%, Beta cell apopt -2, LANA-H2A inh 1.4, Calb FLC -9, T cruzi repl 4, RanGTP-Imp inh 2.2 and A1 inh 1.0.
`CC(=O)N1CCN(S(=O)(=O)c2cccc(C(=O)Nc3ccc4c(c3)OCO4)c2)CC1` gave Beta cell apopt -1, LANA-H2A inh -5.3, Calb FLC 2, T cruzi repl 10, RanGTP-Imp inh 1.4, A1 inh 0.9 and MLL AF4-AF9 inh 3.0.
Screening CN(c1ccc(C(=O)NCCSCc2c(F)cccc2Cl)cc1)S(C)(=O)=O returned Vif A3G -10%, Beta cell apopt 0, LANA-H2A inh 6.4, Calb FLC 0, T cruzi repl 8, RanGTP-Imp inh 4.4, A1 inh 0.8 and MLL AF4-AF9 inh -1.4.
Screening CC(C)CC(=O)c1c[nH]c(C(=O)NCc2cccnc2)c1 returned Vif A3G 10%, Beta cell apopt -6, Calb FLC 26, T cruzi repl -2, RanGTP-Imp inh -2.6, A1 inh 0.4 and MLL AF4-AF9 inh 1.1.
O=C(Nc1cccc(Br)c1)c1cc2ccccc2o1 was read as Vif A3G -8%, Beta cell apopt -8, LANA-H2A inh -6.8, Calb FLC -20, T cruzi repl 2, RanGTP-Imp inh -1.4, A1 inh -5.7 and MLL AF4-AF9 inh -8.6.
`COC(=O)[C@H](C)NC(=O)NCc1ccco1` gave Vif A3G 19%, Beta cell apopt -6, LANA-H2A inh -3.7, Calb FLC 15, T cruzi repl -22, RanGTP-Imp inh -3.7, A1 inh 0.7 and MLL AF4-AF9 inh 1.1.

Not a hit list, and some 4.3% of all compounds hit somewhere here.
